Screens deposited in PubChem BioAssay by National Center for Advancing Translational Sciences (NCATS).
RE007 growth inh: less growth of the S. pombe RE007 Vpr strain. S. pombe RE007 Vpr strain, BacTiter-Glo ATP luminescence, 24 h; control for the full effect not named in the record. Potency, µM (top dose mostly 92.2 µM), for inactives: top-dose activity change, negative = less growth. 360,000 compounds, 0.21% hits. AID 651644; active = well fitted falling curve with a large enough effect; inconclusive = small, poorly fitted or top-dose-only effect; inactive = no such curve, though single readings can be large or run the other way;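 further: on the % scale 0 is the no-effect control and ±100 the full control effect; nearly all actives have a fitted effect of over 50% in size; the assay follows cell death caused by Vpr and the record does not say whether a fall means rescue or toxicity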
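Fission yeast RE007 carrying one integrated HIV-1 vpr copy, seeded at OD 0.01 in PMG+AL medium with 23 nL pinned compound. Grown 24 h at 30 degrees; viability read by BacTiter-Glo luminescence after 5 min.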
2A StopGo: lowers the luciferase signal of an FMDV 2A StopGo reporter; human cells with a luciferase reporter of 2A StopGo recoding; control for the full effect not named in the record; Potency, µM (titrated, usually from 57.9 µM), for inactives: at the highest dose signal change, negative = less light; 410,000 compounds, 1.2% hits; AID 1159524; active = well fitted falling curve with a large enough effect; inconclusive = small, poorly fitted or top-dose-only effect; inactive = no such curve, though single readings can be large or run the other way; tested in HEK293T cells; further: on the % scale 0 is the no-effect control and ±100 the full control effect; nearly all actives have a fitted effect of over 45% in size; luciferase light after 4 h
Cruzain inh Det: cruzain (T. cruzi) inhibition with detergent. 200,000 compounds, 0.43% hits. Potency, µM, for the others: max response, negative = inhibition, usual class: inhibitors. P25779. purified cruzain, Z-FR-AMC fluorescence, 0.01% Triton;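 further: plate controls were neutral wells for no effect and buffer without enzyme for full effect; nearly all actives have a fitted effect of over 40% in size; top concentration of the series not given in the record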
Target sequence (P25779 123-467 limits assumed): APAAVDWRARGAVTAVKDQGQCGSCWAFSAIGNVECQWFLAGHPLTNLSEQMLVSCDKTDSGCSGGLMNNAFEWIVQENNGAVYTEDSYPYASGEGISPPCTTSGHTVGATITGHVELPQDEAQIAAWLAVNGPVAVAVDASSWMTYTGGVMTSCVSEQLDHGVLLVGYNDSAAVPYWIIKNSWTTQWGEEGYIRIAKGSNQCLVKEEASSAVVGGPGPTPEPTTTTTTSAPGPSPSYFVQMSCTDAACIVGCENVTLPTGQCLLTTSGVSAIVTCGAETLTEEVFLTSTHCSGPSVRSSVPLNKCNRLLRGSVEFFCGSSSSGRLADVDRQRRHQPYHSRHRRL
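Steps: dispense cruzain (1.5 nM final) in acetate buffer pH 5.5 with DTT and 0.01% Triton X-100; pin-transfer compounds; incubate 15 min RT; add Z-FR-AMC (2 uM final); read fluorescence every 30 s, using the 60 s intensity change.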
LASV entry inh: blocks Lassa virus binding to or entry into cells; Lassa virus pseudotype entry inhibition, cell reporter; control for the full effect not named in the record; AID 540256; 300,000 compounds, 1.2% hits; Potency, µM (top dose mostly 37.9 µM), for inactives: at the top dose activity change, negative = inhibition, actives largely listed as inhibitors; active means well fitted inhibition curve with a large enough effect; inconclusive means small, poorly fitted or top-dose-only effect, or effect the other way; inactive means flat fitted curve, though single readings scatter; tested in HEK293 cells; further: on the % scale 0 is the no-effect control and ±100 the full control effect; nearly all actives have a fitted effect of over 50% in size; luciferase read-out
NS1 inh: inhibitors of influenza NS1 protein function | S. cerevisiae slowed by influenza A NS1, growth recovery by OD600 | Potency, µM (series often up to 46.1 µM), inactives show top-dose activity, positive = more growth | 270,000 compounds, 0.4% hits | AID 2326; active means well fitted rising curve with a large enough effect; inconclusive means small, poorly fitted or top-dose-only effect; inactive means no such curve, though single readings can be large or run the other way; further: nearly all actives have a fitted effect of over 50% in size
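S. cerevisiae expressing influenza A NS1, grown in glucose, washed, then diluted 1:100 into pH 6.0 -URA galactose medium with 23 nl compound. Growth recovery read as OD600; NS1-free strain serves as control.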
SARS PLP yeast: blocks SARS-CoV papain-like protease in a yeast assay. S. cerevisiae expressing SARS-CoV PLpro, growth rescue; control for the full effect not named in the record. Potency, µM (highest dose often 32.9 µM), without a hit: at the highest dose activity, positive = growth rescue. 330,000 compounds, 0.19% hits; active means well fitted rising curve with a large enough effect; inconclusive means small, poorly fitted or top-dose-only effect; inactive means no such curve, though single readings can be large or run the other way; further: 0% is about no effect; nearly all actives have a fitted effect of over 55% in size; growth read by luminescence after 48 h
MARV entry inh: Marburg virus entry inhibition; Potency, µM (doses to about 37.8 µM), inactives show at the top dose activity change, negative = inhibition, most hits filed as inhibitors; AID 540276; 300,000 compounds, 1.8% hits; Marburg virus pseudotyped entry inhibition, cell reporter; control for the full effect not named in the record; about a third of the inactives were read at about 46 µM; active = well fitted inhibition curve with a large enough effect; inconclusive = small, poorly fitted or top-dose-only effect, or effect the other way; inactive = flat fitted curve, though single readings scatter; tested in HEK293 cells; about a fifth of its hits are not listed in these tables; further: on the % scale 0 is the no-effect control and ±100 the full control effect; luciferase read-out
Cruzain noTriton: blocks cruzain activity in detergent-free assay; 200,000 compounds, 2.3% hits; P25779; purified cruzain, Z-FR-AMC fluorescence, no detergent; Potency, µM, for the others: max response, negative = inhibition, actives largely listed as inhibitors;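 further: plate controls were enzyme without inhibitor for no effect and buffer without enzyme for full effect; nearly all actives have a fitted effect of over 40% in size; top concentration of the series not given in the record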
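Purified cruzain at 1.5 nM, pre-incubated 15 min with compound at room temperature in 100 mM sodium acetate pH 5.5, 5 mM DTT, 0.00005% Triton X-100. Reaction started with 2 uM Z-FR-AMC; AMC fluorescence increase over 60 s gives rate.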
* marks the source's active call; other numbers are inactive results; ? = inconclusive; / = no result given; & = joins results of further samples; [ ] = dose if it differs, or a comment. Unless noted, the call rests on the fitted dose curve; in most records, active means well fitted curve in the direction sought with a large enough effect; inconclusive means small, poorly fitted or top-dose-only effect, or another doubt; inactive means no such curve, though single readings can be large; an effect the other way counts as inactive or inconclusive. Potency means the concentration at half of the fitted maximal effect.

SMILES | RE007 growth inh | 2A StopGo | Cruzain inh Det | LASV entry inh | NS1 inh | SARS PLP yeast | MARV entry inh | Cruzain noTriton
CC1=CC(C)(C)N(C(=O)CSc2nnc(C)s2)c2ccc(C)cc21 | -6.0% | / | -0.9% | -13.8% | -34.6% | -2.4% | -11.8% | -6.0%
COc1ccc(N=c2oc3cc(O)ccc3cc2C(=O)NCC2CCCO2)cc1 (stereo unspecified) | -6.7% | 2.3% | 4.8% | ? | -1.8% | 2.3% | 22.3% | -20.0%
CCCCOCCCNC1=NCCCCC1 | -1.6% | -11.7% | 7.5% | 10.7% | -4.6% | 7.1% | 24.8% | -8.4%
CCOC(=O)C(Cc1ccccc1)NC(=O)Cn1nnc(-c2ccccc2)n1 (stereo unspecified) | -1.4% | ? | 1.7% | -5.5% | -41.4% | -13.5% | 1.9% | -6.2%
O=C(NCCC1=CCCCC1)C1CCCN(S(=O)(=O)c2cccc3cccnc23)C1 (stereo unspecified) | -14.8% | 0.0% | -6.0% | / | -42.4% | 1.3% | -3.2% | 3.3%
O=C(NCCN1CCOCC1)c1ccccc1Cl | 4.8% | -5.9% | / | / | -7.3% | -2.4% | / | /
C/C(=N/NC(=O)c1ccncc1)C1=C(O)CC(C)(C)CC1=O | 3.7% | 2.6% | / | / | / | 1.7% | -1.2%[46.1 µM] | /
O=C1OCC(CO)(CO)N=C1NNc1ccc(Cl)c(Cl)c1 | 70.6% | -13.3% | -5.3% | -6.7% | -62.6% | -42.1% | -16.3% | -1.3%
Cc1cccc(NC(=O)Cn2cc(C(=O)c3ccco3)c3ccccc32)c1 | 0.4% | -4.1%&5.8% | -10.3%&-5.8% | ? | 1.0% | 1.5% | ? | -13.4%&1.1%
O=C(Nc1cccc([N+](=O)[O-])c1)c1ccc(CSc2ccccc2)cc1 | 6.8% | -15.5% | 8.6% | -5.9% | 6.9% | 1.5% | -3.3% | ?
COc1ccc(NC(=O)CSc2ccc(-c3cccs3)nn2)c(OC)c1 | -4.9% | -15.9% | / | ? | / | -2.0% | ? | /
COc1cccc(-c2nnc(SCC(=O)N3CCCCC3)o2)c1 | / | 41.8%[activator] | 0.4% | -36.7%[46.1 µM] | / | / | ? | 3.1%
Cc1ccc(OCC(=O)N/N=C\c2ccc(O)cc2)c([N+](=O)[O-])c1 | 5.1% | -23.6% | / | -13.8% | / | -6.2% | -6.3%[46.1 µM] | /
O=C(Cc1ccc(F)cc1)Nc1ccc(S(=O)(=O)N2CCCC2)cc1 | -2.7% | -6.4% | / | ? | / | 0.5% | ? | /
COc1ccc(N2CCN(c3ncnc4c3nnn4C)CC2)cc1 | / | ? | -0.4% | -5.8%[46.1 µM] | / | / | / | 3.6%
Cc1cc(N2CCN(C)CC2)n2cc(-c3ccc(F)cc3)nc2n1 | 6.3% | 15.0% | -16.4% | -7.2% | 8.3% | 0.9% | -16.2% | -15.1%
COc1cc(/C=C/C(=O)N2CCCN(C(=O)/C=C/c3cc(OC)c(OC)c(OC)c3)CC2)cc(OC)c1OC | 3.4% | -2.5% | / | / | -3.1% | -2.1% | / | /
COc1ccc(Cl)cc1NC(=O)CN(C)C(=O)CN1C(=O)NC(C)(C)C1=O | -9.3% | -1.9% | / | 2.5% | / | -7.6% | 10.3% | /
CC(C)(C)C1CCc2nc(NC(=O)c3ccc([N+](=O)[O-])cc3)sc2C1 (stereo unspecified) | / | ? | -3.4% | 8.9%[46.1 µM] | / | / | 2.2%[46.1 µM] | 10.6%
CCCCn1nnc(NC(=O)c2sc3cc(Cl)ccc3c2Cl)n1 | -14.4% | 5.4% | -4.7% | 0.6% | -33.2% | -2.9% | 3.4% | -16.3%
C/C(=N\Nc1ncc(Cl)cc1Cl)c1ccc(C#N)cc1 | -13.2% | 1.0% | / | 4.9% | / | -4.9% | -5.9% | /
Cc1ccc(S(=O)Cc2nc(-c3ccc(C(=O)NCc4cccc(C)c4)cc3)oc2C)cc1 (stereo unspecified) | / | -21.6% | -2.4% | 25.5%[46.1 µM] | / | / | / | -8.7%
CCN(CC)S(=O)(=O)c1cc(C(=O)c2nccn2C)ccc1Cl | -0.8% | -4.9% | / | -8.1% | / | -1.8% | -6.4%[46.1 µM] | /
Cc1c(C)c2ccc(OCC(=O)NCCCN3CCCC3=O)cc2oc1=O | -2.6% | -5.4% | / | / | 3.3% | -1.3% | / | /
COc1ccc(Cn2nnnc2C(c2cc3cc(C)ccc3[nH]c2=O)N2CCN(C)CC2)cc1 (stereo unspecified) | -0.8% | 63.8%[activator] | / | -0.4% | -0.4% | -0.1% | ? | /
O=C(c1cc2c([nH]c1=O)CCCC2)N1CCc2c([nH]c3ccccc23)C1c1ccccc1F (stereo unspecified) | -3.4% | 28.8% | / | ? | 1.0% | 0.5% | ? | /
COCCNC(=O)C(c1cccnc1)N(Cc1ccc(C)cc1)C(=O)Cn1nnc2ccccc21 (stereo unspecified) | 14.0% | 8.5% | / | -6.4%[46.1 µM] | -4.5% | -0.1% | 6.6%[46.1 µM] | /
Cc1nn(Cc2ccccc2)c(C)c1C(=O)OCC(=O)Nc1cc(S(C)(=O)=O)ccc1Cl | -0.8% | ? | / | ? | 2.5% | 1.0% | ? | /
O=C(N/N=C/c1ccc(OC(F)F)cc1OC(F)F)NC1CCCCC1 | 13.9% | -26.6% | / | 11.2µM* | / | -10.0% | 1.6%[46.1 µM] | /
Cc1cc(C)cc(NC(=O)CN2C(=O)COc3ccc(S(=O)(=O)N4CCCC4)cc32)c1 | -13.5% | -17.2% | / | / | 14.5% | 13.3% | / | /
CCOc1ccc(NC(=O)CSc2nnc(C)n2CC)cc1 | -3.8% | 9.2% | / | ? | 5.7% | -1.3% | -0.7% | /
CCC(C)C(=O)Nc1ccc(S(=O)(=O)N2CCCC2)cc1 (stereo unspecified) | -2.8% | -7.1% | / | / | 6.8% | -1.5% | / | /
OC1(c2cccs2)CN(c2ccc(Cl)cc2)C2=[N+]1CCCC2 (stereo unspecified) | -26.2% | -21.4% | / | ? | / | 6.0% | ? | /
CC(C)c1ccc(/C=N/N2CCN(c3ccccn3)CC2)cc1 | -7.4% | -3.8% | / | 5.0%[46.1 µM] | -2.4% | -0.5% | ? | /
O=C(NC(=S)Nc1ccccc1Br)C1CCCC1 | ? | 36.7%[activator] | / | / | 5.0% | 5.4% | / | /
CN(C)c1ccc(N2C(=O)CC(c3ccccc3)CC2=O)cc1 | 25.5% | 0.0% | / | ? | 2.2% | 0.4% | 14.9% | /
O=c1[nH]c(O)c(C=Nc2cc(F)cc(F)c2)c(=O)[nH]1 | 6.0% | 10.6% | / | / | 5.8% | 3.1% | / | /
Cc1cc(C)c2c(c1)-c1c(ssc1=S)C(C)(C)N2C(=O)CSc1nncn1C | -5.4% | -22.3% | -7.8% | ? | 7.5% | 6.4% | 14.1µM* | ?
O=C(CSc1ccc(Cl)cc1)Nc1ccc(NC(=O)c2ccco2)cc1 | -0.8% | / | 3.7% | -6.3% | 29.2% | 1.6% | 7.2% | 10µM*
Cc1ccc(NC(=O)C(=O)NCCN2CCN(Cc3ccc([N+](=O)[O-])cc3)CC2)cc1 | -16.5% | ? | -7.5% | 10.5% | 5.4% | 8.4% | -26.9% | -9.8%
COc1ccc(C(=O)Nn2c(C)nc3ccccc3c2=O)c(OC)c1 | 0.4% | 0.1% | / | / | -2.1% | 1.1% | / | /
COc1ccc(OC)c(S(=O)(=O)Nc2ccc(C(C)=O)cc2)c1 | -9.4% | 110.3%[activator] | -1.6% | 14.9% | 4.0% | 11.7% | 2.3% | -8.5%
Cc1nn(CCCC(=O)NCCc2ccc(Cl)cc2)c(=O)c2c1sc1ccccc12 | / | -15.0% | -12.4% | ? | / | / | ? | -12.9%
COC(=O)Cc1c(C)c2ccc(OCC(=O)N3CCOCC3)cc2oc1=O | -1.2% | -20.9% | -4.2% | 8.9% | 2.2% | -1.0% | ? | 19.9%
NC(=O)c1ccc(NC(=O)COC(=O)c2c3c(nc4ccccc24)/C(=C\c2ccc4c(c2)OCO4)CCC3)cc1 | 6.1% | ? | 0.0% | ? | 6.9% | 26.1% | ? | ?
Cc1ccc(OCC(=O)NC(C)c2ccccc2)cc1 (stereo unspecified) | -6.6% | 9.4% | / | / | 17.5% | 3.2% | / | /
CC(C)c1ccccc1N1CC(C(=O)O)CC1=O (stereo unspecified) | 1.3% | 8.3% | 5.4% | -14.8% | -12.3% | -8.1% | -1.0% | -0.6%
O=C(NCCN1CCN(c2ccccc2F)CC1)c1cccn2c(=O)c3ccccc3nc12 | 8.0% | 0.9% | -2.6% | ? | -30.8% | 4.0% | ? | 1.9%
Cc1cc(C)c(S(=O)(=O)N2CCOC2CNC(=O)C(=O)NCCN2CCOCC2)c(C)c1 (stereo unspecified) | -1.6% | -16.0% | / | 8.0% | -3.9% | 4.9% | ? | /
